V. cholerae motility = Vibrio cholerae motility inhibitors, OD read-out (AID 588778); Vibrio cholerae motility, OD read-out; higher % means a stronger effect; test concentration not given here; primary cut-off and reference of the scale not given here; strong numbers were not always called active; inhibition, %; hits with a dose series show IC50 in µg/mL; 10,000 tested, under 10 active; in the data active = confirmed in a dose series
V. cholerae motility viability = recorded beside V. cholerae motility, whose call it bears; inhibition, %; measured here: bacterial viability at 10 ug/mL;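 higher means fewer living bacteria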
* = called active by the depositor.

SMILES | V. cholerae motility | V. cholerae motility viability
O=C(Oc1ccc2c(c1)oc(=O)c1ccccc12)c1cccs1 | -5% | -5
COc1ccccc1NC(=O)CC(NC1CCCCC1)C(=O)O (centres undefined) | -3% | 7
O=C(Nc1cc(-c2nc3ccccc3s2)ccc1Cl)c1ccc(-c2ccccc2[N+](=O)[O-])o1 | -2% | -2
CN(CCc1ccccn1)C1CCCCC1 | 30% | 16
CC12CCC(C(=O)NNc3ccccc3)(OC1=O)C2(C)C (centres undefined) | 20% | 29
Cc1cc2ccccn2c1C(=O)C(=O)O | -5% | -8
Cc1ccc(OCC(O)CN)cc1 (centres undefined) | -6% | 2
Cc1sc(NC(=O)CCn2cnc3ccccc3c2=O)c(C#N)c1C | 9% | 1
CCc1cc(I)ccc1NC(=O)c1cc2ccccc2o1 | -8% | -7
Cc1cc(C)c2c(N)c(C(=O)NCc3ccco3)sc2n1 | 2% | 6
CSc1nsc(SCC(=O)N2CCc3ccccc32)n1 | -3% | 1
Cc1ccc(C(=O)NC(=S)N2CCN(c3cc(C)ccc3C)CC2)cc1 | 2% | -16
O=C(C1CC1)N1CCN(c2cccc(C(F)(F)F)c2)CC1 | 3% | 1
O=C(c1ccccc1)c1nnc(-c2ccccc2F)o1 | 11% | -3
Cn1nc([N+](=O)[O-])nc1Sc1ncnn1-c1ccccc1 | 9% | 3
O=C(c1ccco1)N1CCN(C2CC(=O)N(c3ccc4c(c3)OCO4)C2=O)CC1 (centres undefined) | 2% | 6
CCCCSc1c(C)c2cc3c(cc2[nH]c1=O)OCO3 | -8% | 27
Cc1nc2ccc(NC(=O)NCc3ccccc3)cc2nc1C | 5% | -1
CC12CN(C(=O)c3ccccc3)CC(C)(CN(C(=O)c3ccccc3)C1)C2O (centres undefined) | 13% | 0
CCn1c(Sc2ncnc3ccccc23)nc2ccccc21 | 4% | 2

Three structures already listed, arranged by length of the SMILES, ascending.
SMILES | V. cholerae motility | V. cholerae motility viability
Cc1cc2ccccn2c1C(=O)C(=O)O | -5% | -8
CSc1nsc(SCC(=O)N2CCc3ccccc32)n1 | -3% | 1
Cn1nc([N+](=O)[O-])nc1Sc1ncnn1-c1ccccc1 | 9% | 3

(cont.)
SMILES | V. cholerae motility | V. cholerae motility viability
Cc1ccc(S(=O)(=O)Nc2ccc3c(c2)nc(C)n3C)cc1 | 8% | 8
COc1ccc(C(C)=O)cc1CSc1nnc(C)n1Cc1ccccc1 | 12% | 5
CC1(C)Oc2ccc(NC(=O)c3ccc(Cl)c(Cl)c3)cc2O1 | 12% | 27
COc1ccc(C2=CSC3=NCCN23)cc1[N+](=O)[O-] | 6% | 19
O=C(NCC(F)(F)F)Nc1ccncc1 | 7% | 25
O=C(O)Cc1ccc(NC(=S)Nc2ccc3c(c2)OCO3)cc1 | 1% | 10
CC(C)C(=O)N1CCN(c2ccc(NC(=O)c3ccc(Br)o3)cc2Cl)CC1 | -2% | -3
O=C(Oc1ccc(Cl)cc1C(=S)N1CCOCC1)c1ccccc1F | 7% | -5
O=C(NC(=S)NCCC1=CCCCC1)c1cccs1 | 16% | -1
COc1ccccc1-n1c(-c2ccccc2F)n[nH]c1=S | 3% | -2
COc1cc(N2CCCC2)ccc1C=O | 5% | 0
O=C(COc1ccc(F)cc1)N(c1ccccn1)C1CCCCC1 | 14% | 0
N#C/C(=C/c1ccc(OCc2ccccc2C#N)cc1)c1ccc(C(=O)O)cc1 | 12% | 1
COc1ccc(CCNC(=O)C23CCC(C)(C(=O)O2)C3(C)C)cc1OC (centres undefined) | -6% | -7
O=c1c2ccccc2nc(Cc2cccc([N+](=O)[O-])c2)n1-c1c(Cl)cccc1Cl | -16% | 3
Cn1nnc2cc(C(=O)Nc3nncs3)ccc21 | -2% | -8
CCc1ccc(NC(=O)C(=O)NCCN2CCN(Cc3c(F)cccc3Cl)CC2)cc1 | 3% | 1
Cc1nc(CSc2cc(C)c3ccccc3n2)cs1 | 5% | -1
COc1ccc(NC(=O)c2ccco2)c(NC(=O)CSc2ccc(Cl)cc2)c1 | -7% | 3
O=C(CSc1nnc(-c2cccc(Br)c2)o1)Nc1ccccc1C(F)(F)F | 0% | -2
COC(=O)NNC(=O)N1c2ccccc2Sc2ccccc21 | -6% | 0
O=C(Nc1ccon1)c1cccc(C(F)(F)F)c1 | 17% | 3
COc1cc(C=O)ccc1OC(=O)c1cn(CCC#N)nc1-c1cccs1 | -18% | -6
NC(=NCCc1c[nH]c2ccccc12)NC(=O)c1ccccc1 | 22% | 9
CC(=O)N1CCc2c(sc3nc(N)c(C(=O)NCCc4ccc(F)cc4)c(C(F)(F)F)c23)C1 | -5% | -7
Cc1ccc([N+](=O)[O-])cc1NC(=O)Cc1cccs1 | -22% | -14
O=C(O)CC(C(=O)O)c1ccc(Cl)cc1Cl (centres undefined) | 1% | -4
COc1cc(NC(=O)c2ccc3c(c2)C(=O)N(C)C3=O)c(C(=O)O)cc1OC | -3% | -2
COC(=O)CSc1ccccc1C(=O)OC | -1% | -3
Cc1ccc(-c2n[nH]c(=S)n2N=Cc2ccccc2OCC(=O)O)cc1 | 4% | 1
O=C(NNC(=O)c1cc(-c2ccco2)nc2ccccc12)NC1CCCCC1 | 7% | 10
COC(=O)c1ccc(/C=C/C(=O)c2cccs2)cc1 | -8% | -4
Cc1cc(C(=O)NCc2cccs2)no1 | 3% | 7
Cc1cc(NC(=O)c2cnn3cccnc23)no1 | -1% | 0
O=C1CC(c2ccc(S(=O)(=O)N3CCOCC3)cc2)CN1 (centres undefined) | 11% | 8
CCOc1cc(CNCC2CCCN2CC)cc(Cl)c1OCC(N)=O (centres undefined) | 7% | 4
CC1CCc2cc(F)ccc2N1C(=O)C12CCC(c3nc(C#N)c(C#N)nc31)C2(C)C (centres undefined) | 1% | -6
Cc1ccc(N2C(=O)c3ccc4c5c(c(Cl)cc(c35)C2=O)C(=O)N(c2ccc(C)cc2)C4=O)cc1 | -13% | -5
CN(C)c1ccc(C(=S)N2CCCC2)cc1Br | 5% | -3
CSc1ccccc1C(=O)NCCC1=CCCCC1 | 6% | 0

Single values from the entries so far:
O=C(NNC(=O)c1cc(-c2ccco2)nc2ccccc12)NC1CCCCC1 @ V. cholerae motility viability = 10
Cn1nc([N+](=O)[O-])nc1Sc1ncnn1-c1ccccc1 @ V. cholerae motility viability = 3

In a second layout: results already given.
Structure	V. cholerae motility	V. cholerae motility viability
COc1cc(C=O)ccc1OC(=O)c1cn(CCC#N)nc1-c1cccs1	-18%	-6
NC(=NCCc1c[nH]c2ccccc12)NC(=O)c1ccccc1	22%	9
CC(=O)N1CCc2c(sc3nc(N)c(C(=O)NCCc4ccc(F)cc4)c(C(F)(F)F)c23)C1	-5%	-7
Cc1ccc([N+](=O)[O-])cc1NC(=O)Cc1cccs1	-22%	-14
O=C(O)CC(C(=O)O)c1ccc(Cl)cc1Cl (centres undefined)	1%	-4

Later entries.
SMILES | V. cholerae motility | V. cholerae motility viability
COc1ccc(CCNC(=O)c2ccc(N(Cc3ccccc3Cl)S(C)(=O)=O)cc2)cc1OC | -8% | -4
NC(=S)c1cc2ccccc2oc1=O | 16% | 0
O=C(c1ccc(Cl)cc1)N(Cc1ccccc1F)N1C(=O)C2C3C=CC(C3)C2C1=O (centres undefined) | 2% | -2
COc1ccccc1-n1c(N)cc(=O)nc1SCC(=O)Nc1cc(C)on1 | -11% | -7
C=CCn1c(SCC(=O)Nc2ccc(F)c(F)c2F)nnc1-c1ccccc1O | 13% | 0
CCCn1nnnc1NC(=O)Cc1ccccc1 | -3% | -6
O=C(CSCc1ccc(Cl)cc1Cl)Nc1cccc(-c2nnc(-c3ccccc3)o2)c1 | 14% | -5
COc1ccc2[nH]cc(CCNS(=O)(=O)Cc3ccccc3)c2c1 | 9% | 0
COCCNC(=S)NNC(=O)Cc1c(Cl)cccc1Cl | 0% | 7
CCOc1cc(C2CC(=O)Nc3ccc4ccccc4c32)c(Cl)cc1OCC(N)=O (centres undefined) | -17% | 0
N/C(=N\S(=O)(=O)c1ccc(F)cc1F)c1ccccc1 | 2% | -2
Cc1ccc(C(=O)Nc2ccc3[nH]c(=O)[nH]c3c2)c(C)c1 | -7% | -5
Cc1cc(C)c2nc(C(F)(F)F)[nH]c(=O)c2c1 | 10% | -1
CC1=C(C(=O)Nc2ccc(F)cc2)C(c2ccco2)NC(=O)N1 (centres undefined) | 2% | 1
O=C(CC1SC(=Nc2ccc(O)cc2)NC1=O)c1ccccc1 (centres undefined) | -32% | 0
CCOC(=O)N1CCN(C(=O)c2ccc(CSc3ccc(Cl)cc3)cc2)CC1 | 6% | 5
CN(C)c1nc(N(C)C)nc(N(C)C)n1 | 2% | -10
CCCCC(Sc1nc(O)c(Cc2ccccc2)c(=O)[nH]1)C(=O)O (centres undefined) | 13% | 9
COc1cccc(OC)c1OCCCOc1c(Cl)cccc1Cl | 38% | 15
O=C(CCc1c[nH]c2ccccc12)OCc1nnc(-c2ccccc2)o1 | 23% | 5
O=C(NC(=S)N1CCN(c2nc(-c3ccccc3)cs2)CC1)c1cncc(Br)c1 | 2% | -17
CCc1ccc(Oc2coc3cc(OC(=O)CCCN4C(=O)c5ccccc5C4=O)ccc3c2=O)cc1 | -1% | 6
C=COCCNC(=S)N1CCCCC1c1cccnc1 (centres undefined) | -8% | 4
CC(=O)CCC(=O)NCCc1ccccc1F | -28% | -7
Fc1ccc(NC(=S)NCc2ccc(-n3cccn3)cc2)c(F)c1 | 2% | 7
Cc1cc(C)n(C(=O)CSc2ccccc2)n1 | 2% | -6
O=C(O)CNC(=O)CC12CC3CC(CC(C3)C1)C2 | 7% | 1
Cc1cccc(C)c1OCC(=O)NCc1nnc(SCC(=O)NC2CCCCC2)n1C | -5% | -7
Cc1nc(SCCC(=O)Nc2ccccc2C#N)nc2cc3c(cc12)CCC3 | 16% | 3
O=C1CC(Nc2ccc(OC(F)(F)F)cc2)C(=O)N1c1ccc(Cl)cc1 (centres undefined) | -8% | -5
CCC(=O)N(NC(N)=S)c1ccccc1 | 17% | 10
COc1ccc(Cl)cc1-c1nc2ccccc2s1 | -10% | -6
O=C(NS(=O)(=O)c1ccc(Cl)cc1)c1ccccc1O | 11% | -3
CC1=CC(=O)N(CCO)C1c1ccc(Cl)cc1 (centres undefined) | -9% | -4
O=S(=O)(c1ccc(N2CCCC2)cc1)C(F)(F)F | -16% | -7
Cc1ccc(OCCSCc2nnc(NC(=O)Nc3ccccc3F)s2)cc1 | -5% | -14
CC(C)C(=O)Nc1cccc(NC(=O)C(Cl)(Cl)Cl)c1 | 84% | 28
CC(=O)Cc1nsc(NC(=O)C(C)(C)Oc2ccc(Cl)cc2)n1 | 4% | 3
O=C(Nc1ccc2c(c1)C1C=CCC1C(C(=O)O)N2)c1ccc(Cl)cc1Cl (centres undefined) | -9% | -6
Fc1cccc(Cl)c1CNn1cn[nH]c1=S | -10% | -4
CN(C)S(=O)(=O)c1ccc(NC(=O)c2ccc(Br)o2)cc1 | 21% | 25
O=C(NCc1ccccc1F)c1ccc(C#CC2(O)CCCCC2)cc1 | -5% | -7
CC(=O)NS(=O)(=O)c1ccc(NC(=O)c2cc(-c3ccccc3C)nc3ccccc23)cc1 | -3% | -8
Cc1nc(NC(=O)C(Cl)Cl)sc1C(=O)N(C)C | -2% | 2
COCCNC(=O)c1ccc(C)c(Br)c1 | 6% | -2
Cn1c(=O)c2cnc(-c3ccccc3)nc2n(C)c1=O | 4% | 5
CC(=O)Nc1cccc(Cn2cccn2)c1 | 9% | 7
COc1ccc(-c2nc3ccccc3c(C(=O)Nc3ccc(F)cc3F)c2C)cc1 | -9% | 1
O=C(CC1c2ccccc2Oc2ccccc21)NCCOc1ccccc1Cl | -6% | -11
O=C(CSc1nc2ccc(NC(=O)CSc3nnnn3-c3ccccc3)cc2s1)NCc1ccccc1 | 4% | 3
Nn1c(SCC(=O)Nc2cc(C(F)(F)F)ccc2Cl)nnc1C1CCCCC1 | 11% | 2
CCNC(=S)/N=C(\N)Nc1nc(C)c2cc(C)ccc2n1 | 11% | 11
CC(OC(=O)CNS(=O)(=O)c1ccc(Cl)c(Cl)c1)c1ccccc1 (centres undefined) | 6% | 30
CC1=NNC(=O)C(CC(=O)Nc2ccc(I)cc2)C1 (centres undefined) | 10% | 2
Fc1ccc(Nc2ncnc3ccccc23)cc1Cl | 1% | 23
Cn1cnc2c(=S)[nH]c(=O)n(Cc3ccccc3)c21 | -10% | -6
Brc1ccccc1Nc1ncnc2[nH]ncc12 | 20% | 2
Cc1ccc(S(=O)(=O)NC(=O)N(Cc2ccccc2)Cc2ccco2)cc1 | 1% | -6
Cc1c(C(=O)O)oc2c1C(O)CCC2 (centres undefined) | -2% | -3
COc1cc2c(cc1NC(=O)c1nc3ncccn3n1)oc1ccccc12 | 23% | 12
CC(C)C(=O)Nc1ccc(-c2nc3cccnc3o2)cc1 | -16% | 4

One compound at a time, from the list above:
CCCCC(Sc1nc(O)c(Cc2ccccc2)c(=O)[nH]1)C(=O)O (centres undefined) across the screens: V. cholerae motility: 13%; V. cholerae motility viability: 9
O=S(=O)(c1ccc(N2CCCC2)cc1)C(F)(F)F across the screens: V. cholerae motility: -16%; V. cholerae motility viability: -7

The list is partial (hit frequency here may not be typical).
